MLL AF4-AF9 inh – inhibitors of human MLL-AF4/AF9 interaction; P42568; AlphaScreen, biotin-AF4 peptide binding to FLAG-AF9; inhibition, % at 10 µM; hit rate 0.47% among 350,000; AID 651704;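 active = every replicate reaching a set inhibition limit, whatever the replicate mean, cut at about 25% in these data; inconclusive = mean inhibition reaches that limit but some replicates miss it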;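 also: 0% = plate neutral control median and 100% = total signal loss; the record names both 10 and 1 µM as test concentration; the first replicate is given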
Target sequence (P42568 whole entry, looked up): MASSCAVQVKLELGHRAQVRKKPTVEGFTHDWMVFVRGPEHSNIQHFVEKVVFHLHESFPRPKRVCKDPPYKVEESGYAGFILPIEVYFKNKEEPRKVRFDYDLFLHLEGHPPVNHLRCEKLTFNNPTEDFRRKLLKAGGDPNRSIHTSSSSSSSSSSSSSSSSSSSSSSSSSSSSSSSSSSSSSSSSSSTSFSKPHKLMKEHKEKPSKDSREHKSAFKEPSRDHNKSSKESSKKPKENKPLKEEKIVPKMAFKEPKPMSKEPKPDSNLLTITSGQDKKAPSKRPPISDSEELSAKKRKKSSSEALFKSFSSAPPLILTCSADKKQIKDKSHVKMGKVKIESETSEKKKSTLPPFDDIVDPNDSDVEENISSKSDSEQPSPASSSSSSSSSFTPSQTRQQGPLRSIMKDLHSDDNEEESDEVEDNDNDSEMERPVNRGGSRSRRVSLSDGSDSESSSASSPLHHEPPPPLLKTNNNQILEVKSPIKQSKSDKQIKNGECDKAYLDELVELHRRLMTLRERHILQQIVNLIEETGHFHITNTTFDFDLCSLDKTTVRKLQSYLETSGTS
E coli growth – inhibitors of Escherichia coli growth. OD600, 23 h; stronger effect = lower value. OD600 absorbance (concentration not given with the values). hit rate 0.21% among 330,000;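 active = OD600 absorbance below the run mean of sample wells minus 3.6 SD, in any replicate, cut at about 0.56 in these data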;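 also: stock transfer was 300 nL into about 60 µL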
UCH37 inh – blocks the human deubiquitinase UCH37; purified proteasome/UCH37, Ub-AMC cleavage fluorescence; inhibition, % (test concentration not listed); hit rate 0.33% among 330,000;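 active = mean of two replicates above 20%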;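 also: 0% = compound-free wells with enzyme and 100% = wells lacking proteasome; stock transfer was 100 nL into about 20 µL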
Target sequence (Q9Y5K5 whole entry, looked up): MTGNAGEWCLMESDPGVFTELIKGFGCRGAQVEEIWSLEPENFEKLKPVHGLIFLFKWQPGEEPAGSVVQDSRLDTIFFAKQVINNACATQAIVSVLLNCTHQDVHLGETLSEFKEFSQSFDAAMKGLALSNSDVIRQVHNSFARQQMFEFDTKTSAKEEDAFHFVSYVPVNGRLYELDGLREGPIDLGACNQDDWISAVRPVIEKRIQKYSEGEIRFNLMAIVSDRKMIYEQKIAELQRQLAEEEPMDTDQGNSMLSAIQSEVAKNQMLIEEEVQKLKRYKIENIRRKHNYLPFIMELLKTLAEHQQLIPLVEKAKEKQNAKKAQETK
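Material: Human UCH37 enzyme supplied as purified proteasome complex | Schedule: 30 min preincubation with enzyme, 25 min cleavage at room temperature | Detection: AMC fluorescence 355/460 nm | Measure: % inhibition of Ub-AMC cleavage fluorescence | Controls: Wells without proteasome as full block, compound-free enzyme plus substrate as uninhibited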
RanGTP-Impb inh – inhibitors of RanGTP-importin-beta interaction, primary screen, biochemical, FRET, CFP-Ran, YFP-importin-beta, homogeneous; inhibition, % (concentration not given with the values); cell-free CFP-Ran/YFP-importin-beta FRET ratio; hit rate 1.1% among 300,000; AID 2216;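 active = most replicates above 15%; inconclusive = exactly half above 15%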;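 also: 0% = DMSO wells and 100% = Ran loaded with GDP instead of GTP; wells of about 40 µL received 100 nL stock; the first replicate is given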
HNF4A DNA FP – change in binding of human HNF4 alpha to DNA; activity change, % at 10 µM; P41235; hit rate 0.3% among 360,000; HNF4a-FITC DNA binding, fluorescence polarization, 1 h; in the data active = activity change above about 30%, passing the limit was not always enough;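 also: controls were the assay level and a saturating level of protein; the project sought stronger binding though the title names inhibitors; some compounds called inactive have numbers as strong as hits; positive values seem to mean higher polarization but the record does not say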
FGF22 binding – binders of recombinant human FGF22 by thermal shift; hit rate 1.5% among 340,000; SYPRO orange fluorescence; percent of sucrose octasulfate shift, DMSO zero; calls only at 9.99 µM; AID 651658;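 active = melting point raised past a set limit in the mean and every replicate; inconclusive = no clear call; three in four hits are not shown here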
Target sequence (Q9HCT0 whole entry, looked up): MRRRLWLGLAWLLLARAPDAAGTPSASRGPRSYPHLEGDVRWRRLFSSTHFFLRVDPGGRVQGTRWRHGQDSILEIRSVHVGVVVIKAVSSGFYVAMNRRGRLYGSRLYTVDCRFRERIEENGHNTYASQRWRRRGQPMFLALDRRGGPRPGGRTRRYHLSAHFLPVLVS
Vif A3G – HIV-1 Vif–A3G interaction blockers – biochemical, TR-FRET, GST-Vif 1-94, biotin-A3G peptide, dose response retest, primary screen (AID 1117319); TR-FRET GST-Vif / biotin-A3G peptide binding; higher % means a stronger effect; test concentration not given here; strong numbers were not always called active; one-dose inhibition, %; IC50 in µM for titrated hits; hit rate 0.57% among 260,000;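 active = above the screen mean plus three standard deviations and confirmed in dose response; inconclusive = results disagree or hit not tested in dose response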;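 also: Vif residues 1-94 fused to GST binding biotinylated APOBEC3G peptide 110-148; 0% = full assay without inhibitor and 100% = GST in place of GST-Vif; retest series ran down from 100 µM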
* = called active by the depositor; i = inactive; ? = inconclusive; nt = not tested or not shown; & = joins results of further samples. Some of the compounds tested (hit frequency here may not be typical).

SMILES	MLL AF4-AF9 inh	E coli growth	UCH37 inh	RanGTP-Impb inh	HNF4A DNA FP	FGF22 binding	Vif A3G
Nc1nc(F)cc(NCc2ccccc2)n1	-0.6	0.665	-0.4	5.6	2.7	nt	4.5%
O=C(NCc1ccccc1)c1cccc(COc2ccc3c(c2)CCC3)c1	nt	0.699	3.2	-0.8	20.9	nt	nt
C=CCOc1c(Cl)cc(Cl)cc1S(=O)(=O)NCCO	nt	0.672	0.0	nt	-3.7	i	nt
CCC(=O)Nc1ccc2c(c1)ncn2-c1ccccc1OC	nt	0.786	5.8	-1.8	0.2	nt	-3.9%
O=C(O)c1cccc2c1C(=O)N(Cc1ccncc1)C2	nt	0.668	5.2	?	2.1	nt	4.4%
CCCCOc1ccc(N(CC(=O)NCC2CCCO2)C(=O)CCC(=O)Nc2cc(C)ccn2)cc1 (centres undefined)	nt	0.716	1.5	1.1	-4.4	nt	6.3%
COc1ccc(NC(=O)NNC(=O)COc2ccc3ccccc3c2)cc1	-14.4	0.721	2.1	2.3	2.7	i	nt
CC(=NNC(=O)c1ccc(NS(=O)(=O)c2ccc(Br)cc2)cc1)c1cccnc1	0.8	0.692	4.1	nt	-2.6	i	-3.3%
ONC(=Nc1ccc(Cl)cc1)c1ccccc1	nt	0.707	3.8	-7.5	-5.3	nt	-0.8%
CC1CN(c2nc3ccccc3nc2C(C#N)C(=O)OC2CCCCC2)CC(C)O1 (centres undefined)	nt	0.682	-1.3	?	1.4	nt	0.8%
COc1ccc(CN2C(=O)c3cccnc3C2=O)cc1S(=O)(=O)N(C)Cc1ccco1	-3.8	0.68	0.5	6.0	2.8	i	nt
COc1ccc(C)cc1S(=O)(=O)N1CCCC(N2CCN(c3ccccc3)CC2)C1 (centres undefined)	4.6	nt	nt	nt	-0.3	i	nt
CCOC(=O)c1cnn(-c2ccccc2)c1NC(=O)CN1CCCCC1	-1.5	0.624	2.5	-1.1	-4.0	i	-11.2%
O=C(/C=C/c1ccc(Cl)c([N+](=O)[O-])c1)c1cccnc1	4.0	0.72	6.4	2.7	-0.2	i	nt
COCC(C)Nc1ccc(S(=O)(=O)N2CCCC2)cc1[N+](=O)[O-] (centres undefined)	3.2	0.734	4.2	1.7	6.6	nt	-10.9%
O=C1/C(=N\S(=O)(=O)c2cccs2)C([n+]2cccc(Cc3ccccc3)c2)=C([O-])c2ccccc21	nt	0.688	11.1	-81.6	2.2	nt	-2.1%
COC(=O)c1c(NC(=O)c2ccco2)sc2c1CCN(C(C)C)C2	-0.1	0.66	-2.4	53.6*	6.3	i	-4.2%
O=C(NC1CCCCC1)C1c2ccccc2OCC(=O)N1CCCN1CCOCC1 (centres undefined)	-0.7	nt	nt	nt	-1.0	i	nt
Cc1ccc(-c2cc3ccccc3nc2N)cc1	0.7	0.614	-119.1	2.7	0.8	i	1.5%
CC1CCC(NC(=O)CCS(=O)(=O)c2ccc3c(c2)CCN3C(=O)C2CC2)CC1 (centres undefined)	-6.2	0.658	-1.2	3.8	-0.6	i	71.5%

Full records as entered above. Values in the order: MLL AF4-AF9 inh, E coli growth, UCH37 inh, RanGTP-Impb inh, HNF4A DNA FP, FGF22 binding, Vif A3G
`COC(=O)c1c(NC(=O)c2ccco2)sc2c1CCN(C(C)C)C2` is listed with -0.1, 0.66, -2.4, 53.6*, 6.3, i, -4.2%
`COc1ccc(CN2C(=O)c3cccnc3C2=O)cc1S(=O)(=O)N(C)Cc1ccco1` is listed with -3.8, 0.68, 0.5, 6.0, 2.8, i, nt
`COc1ccc(C)cc1S(=O)(=O)N1CCCC(N2CCN(c3ccccc3)CC2)C1` (centres undefined) is listed with 4.6, nt, nt, nt, -0.3, i, nt

New compounds follow.
SMILES	MLL AF4-AF9 inh	E coli growth	UCH37 inh	RanGTP-Impb inh	HNF4A DNA FP	FGF22 binding	Vif A3G
O=C(CSc1nnc(-c2cccnc2)n1-c1ccccc1)Nc1ccc2c(c1)OCO2	nt	0.685	4.1	-0.9	0.0	nt	0.7%
S=C(Nc1ccc(N2CCOCC2)cc1)Nc1ccc2nc(-c3ccco3)c(-c3ccco3)nc2c1	nt	0.683	5.3	20.4*	-9.2	nt	?
COc1cc(S(=O)(=O)N2CCN=C2c2ccccc2)c(OC)cc1Cl	-3.1	0.717	5.3	-3.1	0.9	i	nt
O=C(CN1CCN(C(=O)c2ccco2)CC1)Nc1cc(C(F)(F)F)ccc1Cl	nt	0.792	1.1	2.9	-0.7	nt	?
CCN(CC)S(=O)(=O)c1ccc2c(c1)nc(CCC(=O)Nc1ccc(N3CCOCC3)cc1)n2C	-1.5	0.685	-1.3	7.5	3.1	i	nt
COc1ccc(-c2cn(-c3ccc(OC)cc3)c3[n+]2-c2ccccc2CC3)cc1	-0.7	0.701	-1.4	-0.4	-1.4	i	nt
COc1ccc(C)cc1NC(=O)CNC(=O)[C@@H]1Cc2ccccc2CN1	2.1	0.593	0.3	-0.8	-2.0	i	nt
CN(C)CCCCOc1cccc(Br)c1	0.3	nt	nt	1.7	1.7	i	32.8%
N#Cc1c(N)c2ccccn2c1C(=O)c1ccc(Br)cc1	0.7	0.635	0.3	0.5	0.1	i	0.2%
CN(C)c1nc(N)nc(Cn2nnc(-c3ccc(C(F)(F)F)cc3)n2)n1	1.5	0.706	1.2	2.7	7.0	i	-9.5%
CCCNC(=O)CS(=O)Cc1nc(-c2ccccc2C)oc1C (centres undefined)	5.1	0.702	4.1	-2.9	-5.7	i	23.1%
Cc1ccc(NC(=O)c2cccnc2)c([N+](=O)[O-])c1	1.6	0.664	2.4	?	0.4	i	nt
Cc1cc(C)cc(C(=O)NCC(=O)OCC(=O)Nc2cccnc2Cl)c1	-10.3	0.7	5.0	1.1	-2.2	nt	-10.0%
COc1ccc(CC(=O)NNS(=O)(=O)c2ccccc2[N+](=O)[O-])cc1OC	2.6	0.699	-0.1	-1.4	1.0	i	nt
Cc1ccc(S(=O)(=O)N2CCN(CC(O)CN3CCOCC3)CC2)cc1 (centres undefined)	-11.3	0.65	1.9	nt	-0.2	i	-0.6%
CCOc1ccc2cc(C3CC(c4ccco4)=NN3S(=O)(=O)c3ccccc3)c(Cl)nc2c1 (centres undefined)	nt	0.725	1.7	-3.3	3.8	nt	7.4%
Cc1ccc(N2CCN(C(=O)c3cc(C(=O)c4ccccc4C)c[nH]3)CC2)c(C)c1	3.2	0.762	0.8	-0.2	4.1	i	2.0%
Cc1ccc(C)c(N2C(=O)c3ccc(C(=O)Nc4ccccn4)cc3C2=O)c1	-6.0	nt	nt	nt	1.6	i	-10.7%
CCOC(=O)c1c(CN(C)C)n(-c2ccccc2)c2cc(Br)c(OC)cc12	10.1	0.659	3.2	5.9	-1.8	i	6.4%
Cc1cc(C)n(C(=O)c2cccc(S(=O)(=O)N3CCCCC3)c2)n1	0.2	0.652	2.0	-3.0	0.9	i	27.6%
CCc1ccccc1-n1c(SCC(=O)N2CCCC2)nnc1-c1ccccn1	nt	0.72	2.6	1.4	2.7	nt	1.1%
O=C(CSc1nnc(C2CC2)n1-c1ccccc1)NCCN1C(=O)CSC1=O	-3.1	0.695	0.8	4.3	1.9	i	-6.7%
CCNC(=S)N(Cc1cc2cc(C)c(C)cc2[nH]c1=O)C1CCCC1	3.7	0.672	0.4	1.6	4.3	i	-1.6%
CCOc1ccc(N2C(=O)CC(NC3CCN(C(=O)c4cccs4)CC3)C2=O)cc1 (centres undefined)	-0.3	0.726	-0.2	2.7	0.8	i	1.8%
O=C(CSc1nnc(NC(=O)C2CC(=O)N(c3ccc(F)cc3)C2)s1)NCC1CCCO1 (centres undefined)	-0.7	0.707	3.7	3.3	6.4	i	-4.1%
Cc1ccc(C(=O)N2CC(C)CC(C)C2)cc1S(=O)(=O)N1CCCCC1 (centres undefined)	-1.0	0.654	-0.2	nt	-4.3	i	-11.8%
Cc1cccc(CC2S/C(=N/c3cccc(C)n3)NC2=O)c1 (centres undefined)	2.3	0.676	1.8	-2.3	0.1	i	-10.4%
Cc1ccc(NS(=O)(=O)Cc2ccccc2)cc1Cl	6.8	0.588	2.0	-2.4	-1.3	i	nt
Cc1ccc(C(OC(=O)c2ccco2)C(=O)NC(C)(C)C)cc1 (centres undefined)	-1.6	0.654	2.6	-1.9	-1.4	i	3.3%
CCn1c(SCCN2CCOCC2)nc2c1c(=O)n(C)c(=O)n2C	-1.0	0.651	5.1	-0.9	0.8	i	-5.9%
CC(NC(=O)COc1cccnc1[N+](=O)[O-])c1ccc(Cl)cc1 (centres undefined)	-15.1	0.715	5.8	2.4	-1.7	i	-0.8%
O=C(NC(=S)Nc1ccc(S(=O)(=O)N2CCCCCC2)cc1)c1cccs1	2.0	0.724	5.9	?	-3.9	i	nt
CCOC(=O)N1CCC(N(CCN(C)C)C(=S)Nc2ccccc2Cl)CC1	-21.1	0.715	4.5	-2.6	-1.8	i	12.0%
Cc1cc(C)cc(-n2c(C)cc(/C=N/NC(=O)CN(c3c(C)cccc3C)S(C)(=O)=O)c2C)c1	nt	nt	nt	-3.0	2.7	nt	-2.3%
CCCn1nnnc1SCC(=O)Nc1sc(C)c(C)c1C#N	nt	0.633	6.5	2.9	nt	nt	21.1%
COC(=O)C1(C)NCCc2c1[nH]c1ccccc21 (centres undefined)	1.0	0.752	-1.6	4.2	1.5	i	nt
COc1cc(/C=C(\C#N)c2ccccn2)ccc1OCC(=O)Nc1ccc(Br)cc1	0.5	0.621	-194.8	1.0	-1.7	i	8.2%
CCCCCC(=O)N1C[C@H](O)[C@@H](n2cc(COC(=O)c3ccccc3)nn2)C[C@@H]1c1ccccc1	0.0	nt	nt	nt	1.5	i	nt
COc1ccc(C(=O)C2CCCN(C(=O)c3noc4c3CCCC4)C2)cc1F (centres undefined)	1.0	0.685	1.9	0.9	-4.1	i	nt
Cc1ccccc1S(=O)(=O)N(C)C[C@H]1OCc2cnnn2CCCC(=O)N([C@H](C)CO)C[C@H]1C	-6.4&2.0	nt	nt	nt	-2.0	i	nt
CCN(CC)C(=O)CN(Cc1ccccc1)S(=O)(=O)c1ccc(F)cc1	nt	0.772	-0.5	2.7	-0.1	nt	?
Cc1noc(C)c1C(=O)N1CCC1(C)C(=O)NS(=O)(=O)c1cccs1 (centres undefined)	-4.1	nt	nt	nt	1.0	i	nt
CCCCn1c(=O)[nH]c(=O)c2c1nc(-c1ccc(-c3ccc(F)cc3)o1)n2C	nt	0.709	-135.7	3.6	nt	i	-7.2%
CS(=O)(=O)c1ccc2nc(NC(=O)C3C4C=CC(C4)C3C(=O)O)sc2c1 (centres undefined)	nt	0.773	-0.3	2.4	0.2	nt	-8.3%&-4.2%
O=C(Cc1ccc(Cl)cc1)NC(=S)Nc1ccccc1O	-3.3	0.695	1.8	0.4	5.3	i	nt
Cc1ccc(S(=O)(=O)N2CCCc3cc(NC(=O)c4c(F)cccc4F)ccc32)cc1	-1.4	0.663	2.3	2.5	0.0	i	nt
Cc1ccnc(NS(=O)(=O)c2ccc(NC(=O)c3ccc(N4C(=O)CCC4=O)cc3)cc2)n1	-1.0	nt	nt	?	-2.8	i	30.5%
COC(=O)C1C(C(C)C)N(c2ccccc2)OC1(C)O (centres undefined)	-29.9	0.737	1.0	0.9	4.0	i	2.5%
O=C(NCC1COc2ccccc2O1)c1ccc(-n2cncn2)c([N+](=O)[O-])c1 (centres undefined)	2.4	0.679	0.0	nt	2.2	i	-5.3%
CCC(C)(C)NC(=O)CN(C(=O)C(=O)Nc1ccc2c(c1)OCCO2)N1CCOCC1	1.0	0.548	3.1	10.5	-2.5	i	nt
